liver stage: Plasmodium liver-stage growth inhibition, dose response, imaging, Malaria Box, P. yoelii, HepG2-A16-CD81EGFP (AID 602156); P. yoelii liver stage in HepG2-A16-CD81EGFP, imaging; first-round cut-off not given here; calls after a first round at 10 µM; hits with a dose series show IC50 in µM; 5,700 compounds, 4.8% hits; in the data active means a potency from the dose series;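 further: infected cells exposed to compound for 48 hours before fixation; stained parasite area by imaging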
Starred values were filed as active, the others as inactive; i = inactive.

CC(=O)Nc1ccc(NC2=CC(=NS(=O)(=O)c3ccccc3)c3ccccc3C2=O)cc1
  liver stage: i

O=C(Nc1cnc2ccccc2c1)c1cccc(-n2cnnn2)c1
  liver stage: i

C=C(C)[C@@]12O[C@@H]1[C@@]1(C)C(=CC2=O)CC[C@@H](O)[C@@H]1C
  liver stage: i

COc1ccc2nc(C)cc(Nc3ccc(Cl)cc3)c2c1
  liver stage: i

Cc1ccc2c(c1)C1CN(C)CCC1N2C(=O)c1cc2ccccc2o1 (centres undefined)
  liver stage: i

O=C(CN1CCCC1)N1N=C(c2cccs2)CC1c1ccc(F)cc1 (centres undefined)
  liver stage: i

CN1CCc2c(sc3nc(SCc4ccc(Cl)cc4)n(-c4cccc(Cl)c4)c(=O)c23)C1
  liver stage: i

O=c1c2c([nH]c3cc(Cl)ccc13)CCCC2
  liver stage: i

Cc1cccc(C2c3[nH]c4ccccc4c3CCN2C(=O)CCCN2CCCCC2=O)n1 (centres undefined)
  liver stage: i

C[n+]1c2ccccc2nc2ccc(NCCc3cnc[nH]3)cc21
  liver stage: i

COc1ccccc1N1CCN([C@@H]2CCN(Cc3cccnc3)C[C@@H]2CCC(=O)N2CCCC2)CC1
  liver stage: i

CCCCC(CC)C(=O)N1CCN(C(CC)c2nc3ccccc3c(=O)n2C)CC1 (centres undefined)
  liver stage: 0.23µM*

O=C(C1CCC1)N1CCOc2c(cc(-c3csc4ccccc34)cc2OCCc2ccccn2)C1
  liver stage: i

NC1(C(=O)O)CCc2cc(C(=O)O)ccc21 (centres undefined)
  liver stage: i

C[n+]1ccc(C=Cc2c[nH]c3ccccc23)cc1
  liver stage: i

COc1cccc(-c2ccc(O)c(CN3CCC(Cc4ccccc4)CC3)c2)n1
  liver stage: i

CCCOC(=O)C1=C(C)NC2=C(C(=O)CC(c3ccc(Cl)cc3)C2)C1c1ccc(Cl)cc1 (centres undefined)
  liver stage: i

CCOC(=O)c1sc(NC(=O)CSc2nnc(CNC(=O)COc3ccccc3)n2C)c(C(=O)OCC)c1C
  liver stage: i

CCCCNC(=O)c1ccc2c(c1)N=C(CC(C)c1ccccc1)N(C1CCCCC1)C2 (centres undefined)
  liver stage: i

CC(C)Sc1nc2c(c(=O)n1Cc1ccco1)C1(CCCCC1)Cc1ccccc1-2
  liver stage: i

CN(C)c1ccc(C=Cc2cccc[n+]2C)cc1
  liver stage: i

O=C(NC(c1ccccc1)c1ccc2cccnc2c1O)c1ccccc1 (centres undefined)
  liver stage: i

CCOC(=O)c1cc(-c2ccc(OC)cc2)n(CCC(=O)NCc2ccc(OC)cc2)c1C
  liver stage: i

CCCCCCc1ccc(C(=O)Oc2ccccc2-c2nc3cc(C)ccn3c2NC(C)(C)CC(C)(C)C)cc1
  liver stage: i

Fc1ccc(-c2c[n+](Cc3ccc(Cl)cc3Cl)c3n2CCC3)cc1
  liver stage: i

CN(C)c1ccc(/C=C2/SC(=Nc3ccccc3)NC2=O)cc1
  liver stage: i

CC(C)NC(=O)c1ccc2c(c1)N=C(c1ccccc1)N(C1CC1)C2
  liver stage: i

c1ccc(Cn2c(N=NNc3nc4ccccc4n3Cc3ccccc3)nc3ccccc32)cc1
  liver stage: i

COc1ccc2cc(CNCCc3cccc(Cl)c3)c(N3CCC(=O)N(CCN(C)C)CC3)nc2c1
  liver stage: i

CCOC(=O)CCCCC(=O)c1[nH]c(=O)[nH]c1Cn1ccnc1
  liver stage: i

CC1CCN(c2ncnc3sc4c(c23)CCC(C)C4)CC1 (centres undefined)
  liver stage: i

Cc1oc(C)c2c(=O)cc(-c3cccs3)cc(O)c12
  liver stage: i

O=C(NNS(=O)(=O)c1ccccc1[N+](=O)[O-])c1ccccc1
  liver stage: i

Cc1ccc(C[n+]2cc(-c3ccc(C)cc3)n3c2CCC3)cc1
  liver stage: i

COc1ccccc1CNC(=O)C1c2ccccc2C(=O)N2CCc3ccccc3C12 (centres undefined)
  liver stage: i

CCOc1ccc(-c2c[n+]3c(n2Cc2ccccc2)SCCC3)cc1
  liver stage: i

OC(COc1ccc(OCC(O)CN2CCN(CCOc3ccccc3)CC2)cc1)CN1CCN(CCOc2ccccc2)CC1 (centres undefined)
  liver stage: i

COc1ccc(C(=O)C(CCC(CNC(C)(C)C)C(=O)c2ccc(OC)cc2)CNC(C)(C)C)cc1 (centres undefined)
  liver stage: i

COc1ccc(-n2cc(-c3ccc(Br)cc3)[n+]3c2SCCC3)cc1
  liver stage: i

Cc1ccc(CC(=O)Nc2ccc(I)cc2)cc1
  liver stage: i

Brc1ccc(C=Cc2cc[n+](Cc3ccccc3)cc2)cc1
  liver stage: i

COc1cccc(CCOc2ccc3c(c2)C(=O)N(C(C(=O)NC(C)(C)C)c2cccc(OC)c2)C(CO)C(=O)N3)c1 (centres undefined)
  liver stage: i

CCOC(=O)C(Cc1ccc(O)cc1)NC1=CC(=O)C(=O)c2ccccc21 (centres undefined)
  liver stage: i

COc1ccc2c(c1)N(C)C(=Cc1cccc[n+]1C)S2
  liver stage: i

COc1ccc2cc(CNCCCO)c(N3CCN(c4ccc(F)cc4)CC3)nc2c1
  liver stage: i

CCOc1ccc(N(CC)S(=O)(=O)c2cc(Br)cc3c2N(C(C)=O)CC3)cc1
  liver stage: i

COC(=O)c1c(OCc2ccc(F)cc2)cc(=O)n2c1CCN(Cc1ccccc1)CC2
  liver stage: i

CC[n+]1c(/C=C/N2CCCc3ccccc32)ccc2ccccc21
  liver stage: i

FC(F)(F)c1cccc(NC(=S)N2CCSC2c2ccc(Br)cc2)c1 (centres undefined)
  liver stage: i

O=C(NC=NNc1ccccc1F)c1cc(OCC(F)(F)F)ccc1OCC(F)(F)F
  liver stage: i

O=[N+]([O-])c1cccc(C=NNc2nc(NN=Cc3cccc([N+](=O)[O-])c3)nc(Nc3cccc4ccccc34)n2)c1
  liver stage: i

CCOC(=O)C1=C(CC)NC2=C(C(=O)CCC2)C1c1ccc(N(C)C)cc1 (centres undefined)
  liver stage: i

Cn1c(SCC(=O)Nc2cccc(F)c2)nc2c(c1=O)SCC2
  liver stage: i

CC1CCN(C(=O)CSc2nc(NCc3ccccc3)c3ccccc3n2)CC1
  liver stage: i

CCn1c2ccccc2c2cc(C=NNC(=O)c3nnn(-c4nonc4N)c3-c3ccccc3)ccc21
  liver stage: i

CC(C)(C)C(=O)Nc1ccc(C23CC4CC(CC(c5ccccc5)(C4)C2)C3)cc1
  liver stage: i

Cc1ccn2c(NC(C)(C)CC(C)(C)C)c(-c3ccccc3OC(=O)c3ccc(C(F)(F)F)cc3)nc2c1
  liver stage: i

COc1ccc(C=CC(=O)Nc2ccc3nc(N4CCN(C)CC4)cc(C)c3c2)cc1OC
  liver stage: i

COc1ccc(C2C(=C(O)c3ccc(C)cc3)C(=O)C(=O)N2CCN2CCOCC2)c(OC)c1 (centres undefined)
  liver stage: i

CCCc1nc2ccc(NC(=O)c3ccco3)cc2c(=O)n1Cc1ccc(-c2ccccc2)cc1
  liver stage: 0.31µM*

COc1ccc(S(=O)(=O)N=C2C=C(Nc3ccccc3)C(=O)c3ccccc32)cc1
  liver stage: i

COc1ccc(C2CC(=O)C3=C(C2)NC(C)=C(C(=O)OC2CCCC2)C3c2ccccc2C)cc1OC (centres undefined)
  liver stage: i

O=C(Nc1ccccc1O)c1ccc(C(=O)N(C2CCCCC2)C2CCCCC2)cc1
  liver stage: i

O=C(c1ccc2nc(N3CCCCC3)sc2c1)N1CCN(Cc2ccccc2)CC1
  liver stage: i

CCOC(=O)c1c(CNCCN(CC)CC)n(C)c2cc(Br)c(OC(C)=O)cc12
  liver stage: i

Nc1nc(N)c2cc(S(=O)(=O)N3CCCC3)ccc2n1
  liver stage: i

Clc1ccc(CCNC2CCN(CCc3ccccc3)CC2)cc1
  liver stage: i

COc1cccc(NC(=O)N(Cc2ccccc2)C(C)c2nc3ccccc3c(=O)n2-c2cc(C)ccc2OC)c1 (centres undefined)
  liver stage: i

COC(=O)NCCNC(=O)COC(c1cccs1)c1cccnc1Cl (centres undefined)
  liver stage: i

N#Cc1c(N)n(CCc2ccc(Cl)cc2Cl)c2nc3ccccc3nc12
  liver stage: i

Cn1c(=O)c2c(ncn2CC(O)CN2CCCC2)n(C)c1=O (centres undefined)
  liver stage: i

CCCCCCN(C(=O)c1cccc(C(F)(F)F)c1)C(CC)c1nc2ccccc2c(=O)n1-c1ccccc1OC (centres undefined)
  liver stage: i

O=C(NC(=C(Cl)Cl)[P+](c1ccccc1)(c1ccccc1)c1ccccc1)c1ccc(F)cc1
  liver stage: 0.014µM*

COc1ccccc1N1CCN(C2CCN(C3CCC(c4ccccc4)CC3)CC2)CC1 (centres undefined)
  liver stage: i

CCCCCN(C(=O)c1cccc(OC)c1)C(CC)c1nc2ccccc2c(=O)n1-c1ccccc1OC (centres undefined)
  liver stage: i

O=C(Nc1ccc(C(=O)Nc2ccc(C3=NCCCN3)cc2)cc1)Nc1ccc(C2=NCCCN2)cc1
  liver stage: i

Cc1cccc(Nc2ccccc2C(=O)OCC(=O)N2CC(=O)Nc3ccccc32)c1C
  liver stage: i

COc1cc2nc(C3CCC3)n(NC(=O)c3cccc(F)c3)c(=O)c2cc1OC
  liver stage: i

C[n+]1ccc(/C=C/c2c[nH]c3ccccc23)cc1
  liver stage: i

C#CCNC(=O)c1ccc(OC2CCN(CC3CCCCC3)CC2)c(Cl)c1
  liver stage: i

CCc1ccc(-n2c(C(CC)N(CCc3ccccc3)C(=O)c3cc(OC)cc(OC)c3)nc3ccccc3c2=O)cc1 (centres undefined)
  liver stage: i

CCc1nc2ccc(NC(=O)c3ccncc3)cc2c(=O)n1Cc1cccc(OC)c1
  liver stage: i

CCCCCCN(C(=O)COc1ccccc1)C(CC)c1nc2ccccc2c(=O)n1-c1cccc(Cl)c1 (centres undefined)
  liver stage: i

Brc1ccc(C=Nc2ccc(-c3nc4ccc(-c5ccc6nc(-c7ccc(N=Cc8ccc(Br)cc8)cc7)[nH]c6c5)cc4[nH]3)cc2)cc1
  liver stage: i

COC(=O)C1=C(C)Nc2[nH]c(=S)[nH]c(=O)c2C1c1ccccc1F (centres undefined)
  liver stage: i

S=C(Nc1ccccc1)N1CCCN(c2nc3ccc(Cl)cc3s2)CC1
  liver stage: i

COc1ccc(Nc2nc(NN=Cc3cccc(I)c3)nc(Nc3ccc([N+](=O)[O-])cc3)n2)cc1
  liver stage: i

O=C(NNc1nc(-c2cc3ccccc3oc2=O)cs1)c1ccccc1
  liver stage: i

Cc1noc(-c2ccc(O)cc2O)c1-c1ccc2c(c1)OCCCO2
  liver stage: i

Cc1cc(C(C)(C)C)cc(S(=O)(=O)NCCO)c1C
  liver stage: i

C=CCC1C=C(Cc2ccccc2)CC(CC=C)N1 (centres undefined)
  liver stage: i

CCOC(=O)C1=C(C)N=c2sc(=Cc3cc(Cl)ccc3O)c(=O)n2C1c1ccc(OC)c(OC)c1 (centres undefined)
  liver stage: i

C#CC[N+]1(CC#Cc2cccc3ccccc23)CCCCC1
  liver stage: i

CN(CCCNc1ccnc2cc(Cl)ccc12)C(=O)c1ccc(-c2ccccc2)cc1
  liver stage: i

O=C1NC(=S)NC1=Cc1cccc(Oc2ccccc2)c1
  liver stage: i

C#CC(C)(C)NS(=O)(=O)c1cc(-c2nnc(Nc3cccc(C)c3)c3ccccc23)ccc1C
  liver stage: i

Cc1ncc([N+](=O)[O-])n1CCOC(=O)c1c(NC(=O)c2ccccc2)sc2c1CCCC2
  liver stage: i

Cc1cc(C)n(-c2cc(NN=Cc3cc(Br)ccc3O)nc(C)n2)n1
  liver stage: i

CC[n+]1cc(C)ccc1/C=C/c1ccc(N(C)C)cc1
  liver stage: i

O=[N+]([O-])c1cccc(C(O)CNCc2ccc3c(c2)OCO3)c1 (centres undefined)
  liver stage: i

An excerpt of these results, in markdown:
| molecule | liver stage |
| --- | --- |
| Cc1noc(-c2ccc(O)cc2O)c1-c1ccc2c(c1)OCCCO2 | i |
| Cc1cc(C(C)(C)C)cc(S(=O)(=O)NCCO)c1C | i |
| C=CCC1C=C(Cc2ccccc2)CC(CC=C)N1 (centres undefined) | i |
| CCOC(=O)C1=C(C)N=c2sc(=Cc3cc(Cl)ccc3O)c(=O)n2C1c1ccc(OC)c(OC)c1 (centres undefined) | i |

Later entries
CC(C)CC1=Nc2cc(C(=O)NC(C)C)ccc2CN1Cc1ccccc1
  liver stage: i

COc1cc(Br)c(/C=C2\Sc3ccccc3C2=O)cc1OC
  liver stage: i

CN(C)c1ccc(N=Cc2ccc(N3CCOCC3)cc2)cc1
  liver stage: i

O=C1CN(C(=O)CC2CCCCC2)C(c2ccccc2)c2cc(Cl)ccc2N1 (centres undefined)
  liver stage: i

CCN(CC)CCCC(C)Nc1cc(C=Cc2ccc([N+](=O)[O-])cc2)nc2ccc(OC)cc12 (centres undefined)
  liver stage: i

CCC(=O)N1c2ccccc2NC2=C(C(=O)CC(C)(C)C2)C1c1ccc2c(c1)OCO2 (centres undefined)
  liver stage: i

Cc1cc(S(=O)(=O)N2CCN(Cc3ccccc3)CC2)ccc1-n1cnnn1
  liver stage: i

O=C(c1cc2nc(-c3ccccc3)cc(C(F)(F)F)n2n1)N1CCN(Cc2ccccc2)CC1
  liver stage: i

Cc1noc(C)c1S(=O)(=O)N(Cc1ccccc1)CC(O)CN1CCC(NC(=O)c2cccc3ccccc23)C1 (centres undefined)
  liver stage: i

CCCCN(CC)CCNC(=O)c1cc2c(-c3ccc(Cl)cc3)nn(C)c2s1
  liver stage: i

COc1cc(C)c(CCNCCCCCCNCCc2cc(OC)c(OC)cc2C)cc1OC
  liver stage: i

O=C(N1CCCCC1)n1nnc2ccccc21
  liver stage: i

CN(C)CCNc1ccc2ncc(-c3ccsc3)n2n1
  liver stage: i

Cc1cc(C)cc(OCC(=O)N2N=C(C(C)C)CC2(O)C(F)(F)F)c1 (centres undefined)
  liver stage: i

N#C/C(=C\c1ccc(Sc2ccccc2)o1)c1nc2ccccc2[nH]1
  liver stage: i

O=C(Nc1ccc(-c2nnc(-c3ccccc3)o2)cc1)c1ccc(Br)cc1
  liver stage: i

CN(C)c1ccc(N2C(N)=NC(N)=NC23CCCC3)cc1
  liver stage: i

Compound activity deposited in PubChem by GNF / Scripps  Winzeler lab.

Only part of the results is shown; rates above refer to the full screens.
